# Screening results deposited in PubChem by Broad Institute.
# AF4-AF9 inh – MLL-AF4/AF9 protein interaction inhibition. AlphaScreen, biotin-AF4 peptide binding to FLAG-AF9. inhibition, % at 10 µM. 350,000 compounds, 0.47% hits;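 active means every replicate reaching a set inhibition limit, whatever the replicate mean, cut at about 25% in these data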;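 further: 0% = plate neutral control median and 100% = total signal loss; the record names both 10 and 1 µM as test concentration; the first replicate is given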
# Target sequence (P42568 whole entry, looked up): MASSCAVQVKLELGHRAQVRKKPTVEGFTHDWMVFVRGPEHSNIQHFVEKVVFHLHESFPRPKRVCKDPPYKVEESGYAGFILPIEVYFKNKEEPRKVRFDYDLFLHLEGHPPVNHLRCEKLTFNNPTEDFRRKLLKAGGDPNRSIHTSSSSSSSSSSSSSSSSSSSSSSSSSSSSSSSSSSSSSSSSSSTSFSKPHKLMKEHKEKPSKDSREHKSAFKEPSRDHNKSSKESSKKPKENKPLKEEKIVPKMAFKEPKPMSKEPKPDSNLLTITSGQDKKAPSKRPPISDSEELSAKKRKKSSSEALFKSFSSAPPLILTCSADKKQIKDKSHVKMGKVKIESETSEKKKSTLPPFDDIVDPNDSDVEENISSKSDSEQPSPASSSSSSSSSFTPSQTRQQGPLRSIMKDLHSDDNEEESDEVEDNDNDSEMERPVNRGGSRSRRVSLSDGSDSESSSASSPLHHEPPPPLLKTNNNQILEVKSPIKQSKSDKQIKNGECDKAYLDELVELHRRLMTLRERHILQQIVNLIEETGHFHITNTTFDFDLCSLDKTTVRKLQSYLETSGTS
# rRNA inh HTS – inhibits bacterial ribosomal RNA function over humanized ribosomes. E. coli WT GFP vs humanized-ribosome RFP mutants, fluorescence, 24 h; stronger effect = lower value; DMSO median 0, no signal -100. GFP signal change (wild-type ribosome), % (concentration not given with the values). 350,000 compounds, 1.6% hits. AID 720706;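 active means significant combined selectivity score with lowered wild-type GFP, culture density cut under 30%, mutant RFP and density less affected; inactive means any of these conditions unmet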; further: one replicate is shown; some compounds called inactive have numbers as strong as hits
# FGF22 binding – binders of recombinant human FGF22 by thermal shift. 340,000 compounds, 1.5% hits. SYPRO orange fluorescence; percent of sucrose octasulfate shift, DMSO zero. calls only at 9.99 µM;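 active means melting point raised past a set limit in the mean and every replicate; three in four hits are not shown here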
# Target sequence (Q9HCT0 whole entry, looked up): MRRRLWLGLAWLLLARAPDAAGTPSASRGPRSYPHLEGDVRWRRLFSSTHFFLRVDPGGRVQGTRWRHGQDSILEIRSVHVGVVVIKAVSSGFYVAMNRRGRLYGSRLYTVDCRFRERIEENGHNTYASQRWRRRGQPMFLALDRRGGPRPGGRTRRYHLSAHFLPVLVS
# rRNA inh HTS OD600 – second read-out of rRNA inh HTS, no call of its own (marks repeat the call); OD600 change, %; measured here: OD600 growth;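 optical density of the mix in the first replicate; 0 = DMSO median and -100 = no signal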
# rRNA inh HTS RFP – also measured in rRNA inh HTS; calls as there; RFP signal change, %; measured here: RFP humanized mutant strains;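 first replicate; 0 = DMSO median and -100 = no signal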
# Starred values were filed as active, the others as inactive; i = inactive; + = active, no number; & = joins results of further samples. Some of the compounds tested. The share of hits here may be higher or lower than overall.
SMILES,AF4-AF9 inh,rRNA inh HTS,rRNA inh HTS OD600,rRNA inh HTS RFP,FGF22 binding
Cc1cc(C(=O)Nc2ccc3c(c2)C(=O)N(C)[C@H]2CC[C@@H](CC(=O)NC4CCCC4)O[C@@H]2CO3)no1,-0.4,0,-8,-1.0,i
COc1ccc(NC(=O)N(C)C[C@@H]2Oc3ccc(NC(=O)C4CCCCC4)cc3C(=O)N([C@H](C)CO)C[C@H]2C)cc1,-3.5,3,3,-3.1,i
CNC[C@H]1Oc2ccc(NS(=O)(=O)c3ccc(F)cc3)cc2C(=O)N([C@@H](C)CO)C[C@@H]1C,-2.2,10,-4,0.1,i
Cc1cccc(S(=O)(=O)N[C@H]2CC[C@H](CCn3cc(-c4ccccn4)nn3)O[C@@H]2CO)c1,-0.2,-2,5,2.2,i
C[C@@H]1CN([C@@H](C)CO)S(=O)(=O)c2ccc(-c3ccc(C#N)cc3)cc2O[C@@H]1CN(C)Cc1ccccn1,1.0&-2.8&-0.3,-16&1,-19&5,6.2&5.2,i
C[C@H]1CN([C@@H](C)CO)C(=O)c2cccc(NC(=O)C3CC3)c2O[C@@H]1CN(C)C(=O)Nc1ccc(C(F)(F)F)cc1,-3.2,-1,-9,-3.6,i
C[C@H](CO)N1C[C@H](C)[C@@H](CN(C)S(C)(=O)=O)Oc2ccc(NC(=O)Nc3cccc4ccccc34)cc2C1=O,1.2,1,-3,-1.5,i
O=C(C1CCOCC1)N1C[C@H]2[C@@H](c3ccccc31)[C@@H](CO)N2Cc1ccccc1,-1.8,-1,1,-1.0,i
COc1ccc(NC(=O)Nc2ccc3c(c2)C(=O)N([C@@H](C)CO)C[C@@H](C)[C@H](CN(C)Cc2ccc(C(F)(F)F)cc2)O3)cc1,1.7,-3,-14,0.3,i
O=C(C[C@@H]1C=C[C@@H](NC(=O)Nc2cc(F)ccc2F)[C@H](CO)O1)NCc1ccccn1,-4.5,1,2,0.4,i
O=C(C[n+]1ccc2ccccc2c1)c1ccc2ccc3ccccc3c2c1,15,10,23,0.4,i
C[C@H]1CN([C@@H](C)CO)C(=O)c2cc(NS(C)(=O)=O)ccc2O[C@H]1CN(C)C(=O)Nc1ccc(C(F)(F)F)cc1,0.9,-4,-16,-2.6,i

# Three entries already listed, arranged by their value in rRNA inh HTS OD600, highest first:
molecule | rRNA inh HTS OD600
COc1ccc(NC(=O)N(C)C[C@@H]2Oc3ccc(NC(=O)C4CCCCC4)cc3C(=O)N([C@H](C)CO)C[C@H]2C)cc1 | 3
Cc1cc(C(=O)Nc2ccc3c(c2)C(=O)N(C)[C@H]2CC[C@@H](CC(=O)NC4CCCC4)O[C@@H]2CO3)no1 | -8
COc1ccc(NC(=O)Nc2ccc3c(c2)C(=O)N([C@@H](C)CO)C[C@@H](C)[C@H](CN(C)Cc2ccc(C(F)(F)F)cc2)O3)cc1 | -14

# Next part
SMILES,AF4-AF9 inh,rRNA inh HTS,rRNA inh HTS OD600,rRNA inh HTS RFP,FGF22 binding
CCN(CC)C(=O)C1=C(C)N(Cc2ccccc2)C(=O)C(CC(=O)NCc2cccc3ccccc23)C1 (centres undefined),-1.0,-7,-31,-7.7,i
C[C@@H]1CN([C@@H](C)CO)C(=O)c2cc(NS(C)(=O)=O)ccc2O[C@@H]1CN(C)Cc1ccc(C(F)(F)F)cc1,0.3,-2,-9,-0.6,i
CCC(=O)Nc1ccc2c(c1)OC[C@@H](C)N(C(=O)Cc1cccnc1)C[C@@H](C)[C@H](OC)CN(C)C2=O,-1.3,4,3,-1.5,i
CCOC(=O)N1CCN(C(=O)c2ccc3oc(CCc4ccccc4)nc3c2)CC1,-1.6,0,-2,-3.4,i
CCOC(=O)C1=C(C)NC(C)=C(C(=O)OCC)C1c1ccc(OC)c(OC)c1,10,-1,-2,-0.3,i
COc1ccc(C2(SCC(N)C(=O)O)c3ccccc3-c3ccccc32)cc1 (centres undefined),0.6,-7,-11,-4.7,i
C#CCN1CC(COCCCC)Oc2cccc(F)c2S1(=O)=O (centres undefined),-2.3,4,-18,-3.8,i
O=C(N[C@H]1CC[C@H](CC(=O)N2CCOCC2)O[C@@H]1CO)c1ccccn1,-0.4,3,4,-2.9,i
CC(C)C(=O)Nc1ccc2c(c1)C(=O)N(C)[C@H]1CC[C@@H](CC(=O)NCc3ccc(F)cc3)O[C@H]1CO2,-1.5,0,1,-0.7,i
C[C@H]1CN([C@@H](C)CO)S(=O)(=O)c2ccc(C#CC3CCCCC3)cc2O[C@@H]1CN(C)C,11,-16,-29,7.7,+
C[C@@H]1CN([C@H](C)CO)S(=O)(=O)c2ccc(C#CC3CC3)cc2O[C@H]1CN(C)S(C)(=O)=O,0.7,-6,-19,-3.6,i
CC(=O)c1ccc(-c2cnc3c(NC=O)cc(-c4cccc(C(=O)N(C)C)c4)cn23)cc1,-8.4,-3,-3,2.8,i
CO[C@@H]1CN(C)C(=O)c2ccc(NC(=O)Cc3ccccc3)cc2OC[C@@H](C)NC[C@@H]1C,-1.0,-1,-4,1.4,i
COc1ccc(C(=O)C(=O)N2CCN(C(=O)c3ccccc3C(F)(F)F)CC2)cc1OC,0.1,9,4,0.5,i
Cc1noc(C)c1NC(=O)Nc1cccc2c1O[C@@H](CN(C)S(=O)(=O)c1ccc(F)cc1)[C@H](C)CN([C@H](C)CO)C2=O,-2.0,-2,0,-1.0,i
CCCN1C[C@H](C)[C@H](OC)CN(C)C(=O)c2cc(NS(=O)(=O)c3cn(C)cn3)ccc2OC[C@H]1C,-1.8,2,6,-0.1,i
C[C@H]1CN([C@@H](C)CO)S(=O)(=O)c2ccc(-c3ccc(F)cc3)cc2O[C@H]1CN(C)C(=O)Nc1ccccc1F,-0.5,-3,-3,2.8,i
CCNC(=O)[C@H]1[C@H](CO)[C@H]2Cn3c(ccc(-c4ccccc4F)c3=O)[C@H]2N1C(C)=O,-4.0,5,-1,-1.0,i
COc1ccc(CN(C)C[C@@H]2OCCCC[C@@H](C)Oc3ccc(NC(=O)NC4CCCCC4)cc3C(=O)N([C@@H](C)CO)C[C@H]2C)cc1,6.3,0,3,-0.3,i
COC(=O)[C@@H](NS(=O)(=O)c1cc(Br)ccc1Br)C(C)C,2.5,-26*,-19*,-2.1*,i
C[C@@H]1CN([C@@H](C)CO)C(=O)c2cccc(NC(=O)Nc3ccccc3)c2O[C@@H]1CN(C)C(=O)Nc1ccc(F)cc1,1.6,-2,-10,-1.0,i
CCOC(=O)[C@]12CCC=C1N(Cc1ccco1)C(=O)[C@H](CC(=O)NCc1cccc3ccccc13)C2,0.5,0,0,3.5,i
C[C@@H]1CN([C@H](C)CO)C(=O)c2cc(-c3cncnc3)cnc2O[C@@H]1CN(C)C(=O)CN1CCOCC1,-2.1,1,1,0.7,i
CCCN(C)C[C@@H]1Oc2cc(C#Cc3cccc(OC)c3)ccc2S(=O)(=O)N([C@@H](C)CO)C[C@@H]1C,7.1,-6,-16,9.3,i

# Profiles from above. Order of screens: AF4-AF9 inh | rRNA inh HTS | rRNA inh HTS OD600 | rRNA inh HTS RFP | FGF22 binding
# `CC(C)C(=O)Nc1ccc2c(c1)C(=O)N(C)[C@H]1CC[C@@H](CC(=O)NCc3ccc(F)cc3)O[C@H]1CO2` is listed as -1.5 | 0 | 1 | -0.7 | i
# `COc1ccc(NC(=O)Nc2ccc3c(c2)C(=O)N([C@@H](C)CO)C[C@@H](C)[C@H](CN(C)Cc2ccc(C(F)(F)F)cc2)O3)cc1` is listed as 1.7 | -3 | -14 | 0.3 | i
# `C[C@H](CO)N1C[C@H](C)[C@@H](CN(C)S(C)(=O)=O)Oc2ccc(NC(=O)Nc3cccc4ccccc34)cc2C1=O` is listed as 1.2 | 1 | -3 | -1.5 | i

# (more compounds)
SMILES,AF4-AF9 inh,rRNA inh HTS,rRNA inh HTS OD600,rRNA inh HTS RFP,FGF22 binding
COC[C@H]1CCCN1[C@H]1CS(=O)(=O)N[C@@H]1COCc1ccccc1,-3.5,15,9,2.5,i
O=C(C[C@H]1CC[C@@H](NC(=O)CC2CC2)[C@@H](CO)O1)NCc1ccc(Cl)cc1,0.0,-2,7,-2.0,i
CN1c2ccc(Br)cc2[C@@H]2[C@@H](CCN2S(=O)(=O)c2ccccc2)[C@@H]1CO,0.6,-45,-69,-4.4,i
C[C@H]1CN([C@@H](C)CO)C(=O)c2cccc(NS(C)(=O)=O)c2O[C@@H]1CN(C)S(=O)(=O)c1ccc(Cl)cc1,-3.4,-3,-2,-1.9,i
C[C@H]1CN([C@@H](C)CO)S(=O)(=O)c2ccc(C#CC3CC3)cc2O[C@@H]1CN(C)C,-2.1,0,5,0.6,i
Cc1nn(CC(C)C)c(Cl)c1C(=O)N(C)CC(=O)Nc1ccc(Cl)cc1,-6.0,-2,-10,-1.9,i
Cc1cc2nc(-c3ccccc3Br)n(/C=C(\c3ccccc3)n3c(=O)[nH]c4ccccc43)c2cc1C,-2.2,-1,8,1.1,i
Cc1ccc(-c2nc3ccc(C)cn3c2CC2CCCCC2)cc1,1.9,-4,-2,3.0,i
C[C@@H]1CN([C@@H](C)CO)C(=O)Cc2cc(NC(=O)Nc3ccccc3)ccc2O[C@H]1CN(C)S(=O)(=O)c1cn(C)cn1,-1.0,5,0,-0.2,i
O=C(C[C@H]1CC[C@H](NS(=O)(=O)c2ccc(F)cc2)[C@H](CO)O1)N1CCC(Cc2ccccc2)CC1,-2.1,6,14,-5.2,i
CNC[C@@H]1Oc2ncc(C#Cc3cccc(OC)c3)cc2C(=O)N([C@H](C)CO)C[C@@H]1C,13,-3,2,-2.3,i
CC(C)(C)c1ccc(C(=O)N2[C@H](COCc3ccccc3)C=CS2(=O)=O)cc1,-0.1,-2,-30,-2.0,i
Cc1noc(C)c1S(=O)(=O)Nc1ccc2c(c1)C(=O)N([C@H](C)CO)C[C@H](C)[C@@H](CN(C)Cc1ccc(C(=O)Nc3ccccc3N)cc1)OCCCC[C@@H](C)O2,1.6,0,-2,1.9,i
CCCCn1nnnc1C1(C)CCC(=O)N1C1CC1 (centres undefined),-2.0,7,23,-3.4,i
Cc1[nH]c2ccccc2c(=O)c1CNCc1ccccc1,1.8,10,23,7.1,i
C[C@@H]1CN([C@@H](C)CO)S(=O)(=O)c2ccc(C3=CCCC3)cc2O[C@H]1CN(C)Cc1ccncc1,0.7,-40,-68,4.0,i
C[C@@H]1CCCCO[C@@H](CN(C)C(=O)Nc2cccc3ccccc23)[C@@H](C)CN([C@H](C)CO)C(=O)c2cc(NS(C)(=O)=O)ccc2O1,-8.5,4,-17,-2.6,i
CCOC(=O)C1(C)CCCN(C(=O)c2cc(C#N)cs2)C1 (centres undefined),-1.7,4,-3,0.8,i
C[C@H](CO)N1C[C@H](C)[C@@H](CN(C)Cc2cccc(F)c2)Oc2cc(-c3ccc(C#N)cc3)ccc2S1(=O)=O,0.9,-1,-14,6.5,i
CCCC#Cc1cnc2c(c1)C(=O)N([C@@H](C)CO)C[C@H](C)[C@H](CN(C)C(=O)Nc1cccc(F)c1)O2,2.4,-2,-3,0.2,i
O=C(N[C@H]1CC[C@H](CCNS(=O)(=O)c2ccc(Cl)cc2)O[C@H]1CO)c1ccccn1,-1.3,-11,-3,12,i
COc1ccc(OC(=O)N(C)C[C@@H]2OCc3ccccc3-c3ccccc3C(=O)N([C@H](C)CO)C[C@@H]2C)cc1,-2.8,-1,1,-1.0,i
C[C@@H]1CN([C@H](C)CO)C(=O)CCCn2nncc2CO[C@@H]1CN(C)C(=O)Nc1cccc2ccccc12,-12&-0.1,-1&-1,-12&1,-1.4&-0.2,i
C[C@H](O)C#Cc1ccc([C@@H]2[C@H](CO)N3CCCCN(C(=O)c4ccc(F)cc4)C[C@@H]23)cc1,-2.6,3,7,-0.9,i
C[C@@H]1CN([C@H](C)CO)C(=O)c2cc(-c3cccc(F)c3)cnc2O[C@H]1CN(C)Cc1ccncc1,-1.8,0,4,-2.7,i
C/C=C/c1cnc2c(c1)C(=O)N([C@@H](C)CO)C[C@H](C)[C@H](CN(C)Cc1ccccc1)O2,-7.2,1,9,-1.8,i
C[C@H](CO)N1C[C@H](C)[C@@H](CN(C)S(=O)(=O)c2cccs2)OCCCC[C@H](C)Oc2ccc(NC(=O)Nc3ccc4c(c3)OCO4)cc2C1=O,0.5,-7,-7,-2.6,i
O=C(C[C@@H]1C[C@@H]2c3cc(NC(=O)Nc4ccc(C(F)(F)F)cc4)ccc3O[C@@H]2[C@H](CO)O1)NCC1CC1,-0.9,-3,4,-1.0,i
COc1ccc(S(=O)(=O)Nc2cccc3c2O[C@@H](CN(C)S(=O)(=O)c2cccs2)[C@H](C)CN([C@H](C)CO)C3=O)cc1,-5.1,-8,-14,5.4,i
O=C1CN(C(=O)CN2CCN(S(=O)(=O)c3ccccc3)CC2)c2ccccc2N1,-1.5,7,0,-0.6,i
COc1ccccc1C(=O)Nc1ccc2c(c1)OC[C@@H](C)N(C)C[C@H](C)[C@@H](OC)CN(C)C2=O,-1.2,0,-1,1.4,i
O=C(CSC1CCc2ccccc21)NN=Cc1ccco1 (centres undefined),9.3,4,1,2.2,i
Cc1noc(C)c1NC(=O)N[C@@H]1C=C[C@H](CC(=O)NCCCN(C)C)O[C@@H]1CO,0.7,1,-5,0.2,i
COc1ccc(NC(=O)C2(C)CCN2Cc2ccccc2OC(F)F)cc1OC (centres undefined),3.7,-5,-20,-1.6,i
